miR-21 FLuc = raises the signal of a miR-21 reporter; HeLa miR-21 FLuc reporter, luciferase, 48 h; Potency, µM (doses to about 38.3 µM), inactives show at the top dose reporter change, positive = more light; 340,000 tested, under 10 active; AID 2288; active = well fitted rising curve with a large enough effect; inconclusive = small, poorly fitted or top-dose-only effect; inactive = no such curve, though single readings can be large or run the other way;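 also: % of control where 0% means no effect; miR-21 action dims this reporter so a rising signal means less miR-21 action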
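HeLa miR-21-FLuc reporter line, endogenous miR-21; 2000 cells/well in DMEM/10% FBS; compound titration up to ~40uM final, 48 h, 37 degree Celsius; luciferase detection reagent, 15 min lysis, CCD luminescence.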
GLA inh pH 4.5 = alpha-galactosidase A (human) inhibition, pH 4.5 | 230,000 tested, under 10 active | purified enzyme, 4-MU-alpha-Gal fluorescence, pH 4.5 | P06280 | activity change, negative = inhibition, % at 105 µM; inconclusive = small, poorly fitted or top-dose-only inhibition, or a rising curve; inactive = flat fitted curve, though single readings scatter; no compound was filed as active;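 also: 0% = full activity with enzyme and -100% = basal without enzyme; dose as in the result columns while the protocol names 77 µM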
Rango release inh = inhibitors of RanGTP-induced Rango-importin beta complex dissociation. actives 0.071% (n = 340,000). O95149+P62826. Potency, µM (titrated, usually from 46.1 µM), for the others: at the highest dose activity change, negative = inhibition. Biochemical FRET Rango-importin beta, RanGTP-induced dissociation; active means falling FRET ratio curve, often poorly fitted, with flat reads before Ran was added; inconclusive means other falling curves, or compound fluorescence or quenching; inactive means flat or rising ratio curve;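 also: potency is read from the fitted curve at half-maximal effect; % of control where 0% means no effect; nearly all actives have a fitted effect of over 45% in size; -100% = wells without RanGTP and RCC1; the record marks most hits as doubtful in a second field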
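Quantitative HTS using a FRET biosensor: 0.1 uM Rango, 0.25 uM importin beta, 0.6 uM Ran, 2 mM GTP, 0.2 uM RCC1 final, PBS with DTT, Tween-20 and BSA. Post-read taken 45 min after Ran addition.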
Rango-impB inh = inhibitors of Rango-importin beta complex formation. Rango CFP/YFP FRET sensor + importin beta, 45 min. Potency, µM (doses to about 92.2 µM), without a hit: at the highest dose inhibition of complex formation. actives 0.031% (n = 340,000). AID 540263; active = rising FRET ratio curve, often small or poorly fitted; inconclusive = mostly compound fluorescence or quenching in the first reads; inactive = flat curves in all reads;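 also: potency is read from the fitted curve at half-maximal effect; 0% = DMSO wells and 100% = buffer wells lacking importin beta; nearly all actives have a fitted effect of over 15% in size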
Target sequence (Q14974 whole entry, looked up): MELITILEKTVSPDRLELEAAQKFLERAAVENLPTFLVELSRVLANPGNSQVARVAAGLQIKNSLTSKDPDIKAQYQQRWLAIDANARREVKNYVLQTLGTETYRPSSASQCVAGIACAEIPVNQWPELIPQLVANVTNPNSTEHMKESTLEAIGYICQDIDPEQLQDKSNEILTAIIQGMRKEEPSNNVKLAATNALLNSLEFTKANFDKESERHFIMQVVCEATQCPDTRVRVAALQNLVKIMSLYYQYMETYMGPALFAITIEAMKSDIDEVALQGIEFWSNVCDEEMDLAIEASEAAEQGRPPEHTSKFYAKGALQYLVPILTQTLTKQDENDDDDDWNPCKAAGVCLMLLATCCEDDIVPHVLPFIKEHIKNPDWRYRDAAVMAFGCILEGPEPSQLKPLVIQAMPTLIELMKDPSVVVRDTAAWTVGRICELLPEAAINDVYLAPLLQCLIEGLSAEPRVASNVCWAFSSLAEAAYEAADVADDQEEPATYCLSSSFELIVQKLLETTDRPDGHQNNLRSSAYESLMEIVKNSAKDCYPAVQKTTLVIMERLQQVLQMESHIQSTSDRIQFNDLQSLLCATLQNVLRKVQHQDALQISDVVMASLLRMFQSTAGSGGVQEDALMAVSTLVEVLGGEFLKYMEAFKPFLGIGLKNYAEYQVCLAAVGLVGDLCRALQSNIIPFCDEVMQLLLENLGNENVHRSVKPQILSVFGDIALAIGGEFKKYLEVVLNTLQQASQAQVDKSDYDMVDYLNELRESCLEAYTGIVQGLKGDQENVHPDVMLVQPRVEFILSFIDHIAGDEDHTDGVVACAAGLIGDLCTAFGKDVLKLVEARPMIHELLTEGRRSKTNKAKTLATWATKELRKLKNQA
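Inhibition scored from the CFP 486 nm/YFP 530 nm FRET ratio 45 min after adding 0.125 microM importin beta to 50 nM Rango biosensor preincubated 5 min with compound (room temperature, PBS with DTT, Tween-20, BSA). No-importin wells as positive control.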
Active calls of the source: *; ? = inconclusive; · = not tested or not shown; [ ] = dose if it differs, or a comment.

SMILES	miR-21 FLuc	GLA inh pH 4.5	Rango release inh	Rango-impB inh
CC12CC(NC(=O)N1CCc1ccccc1)c1cc(Cl)ccc1O2 (stereo unspecified)	1%	-4	-8%	?
O=C(Cc1ccccc1)N/N=C/c1ccc(S(=O)(=O)O)o1	-4%	5	44%	-6.2%
CC(C)(C)c1cc(C(=O)N2CCc3ccccc32)ccn1	-6%	6	30%	1.5%
COc1ccccc1C(=O)Nc1ccc(S(=O)(=O)Nc2cnc3ccccc3n2)cc1	-14%	·	-9%	4.0%
CCOc1ccc(C(C(=O)NCC2CCCO2)N(C(=O)c2snc(C(N)=O)c2N)c2ccc3c(c2)OCCO3)cc1 (stereo unspecified)	7%	·	2%	-3.8%
Cc1cc2ncc(C(=O)Nc3ccsc3C(=O)O)c(C)n2n1	2%	12	6%	-1.1%
Cc1c(OC(C)C(=O)NCCN2CCOCC2)ccc2c3c(c(=O)oc12)CCCC3 (stereo unspecified)	-18%	·	-14%	3.9%
CCCS(=O)(=O)N1CCc2cc(OC)c(OC)cc2C1	-7%	4	-10%	-4.2%
CN(C)CCCNc1oc(-c2ccccc2)nc1C#N	-7%	2	6%	-1.6%
O=C(NC1CCCC1)c1ccc2nc(-c3ccco3)c(-c3ccco3)nc2c1	-2%	0	?	-16%
O=C(NCC(c1ccco1)N1CCCC1)c1cn(-c2ccccc2)nc1-c1ccc(F)cc1 (stereo unspecified)	·	·	-11%	-0.8%
COc1ccc(NC(=O)c2cccnc2)cc1OCC(C)C	-11%	·	0%	1.0%
Cc1cccc2nc(CSc3ccccc3C(=O)O)cn12	-18%	-3	-6%	3.0%
CCc1ccc(C(=O)NC(=S)Nc2ccc3c(c2)OCCO3)cc1	-68%	2	-9%	-0.1%
CCOC(=O)C(=CNCC(=O)O)C(=O)OCC	-1%	2	13%	2.8%
Cc1ccc(S(=O)(=O)Nc2cccc(-n3cnnn3)c2)cc1	-1%	·	8%	-0.4%
CC(C)CCn1c(=O)c(C(=O)N/N=C/c2cccc(F)c2)c(O)c2ccccc21	-8%	?	5%	3.9%
COc1cc(NC(=O)CN2c3ccccc3CC2C)cc(OC)c1OC (stereo unspecified)	9%	-4	-1%	-1.3%
Nc1ccc(N2CCCC2)c(S(=O)(=O)Nc2cccc(C(F)(F)F)c2)c1	·	·	-13%	-0.4%
COC(=O)C1=C(COc2ccccc2)NC(=O)NC1c1ccc(Br)cc1 (stereo unspecified)	-9%	4	-7%	-3.2%
O=C(COc1ccccc1)N1CCN=C1SCc1ccc(F)cc1	-3%	1	-4%	-3.6%
Cn1c(=O)c2c(nc(N3CCc4ccccc4C3)n2Cc2ccccc2F)n(C)c1=O	1%	-14	10%	5.1%
COc1cc2c3c(c1OC)C1(C=CC(=O)C=C1)CC3N(C(=O)CCC(=O)O)CC2 (stereo unspecified)	5%	7	16%	-0.1%
CC(NC(=S)NCCc1ccccc1)C(c1cccs1)N1CCN(C)CC1 (stereo unspecified)	-5%	-1	11%	1.7%
O=C(NCc1ccccc1)c1ccc(Cn2cc(C(F)(F)F)ccc2=O)cc1	-2%	-24	-9%	7.4%
More entries follow.
SMILES	miR-21 FLuc	GLA inh pH 4.5	Rango release inh	Rango-impB inh
Cc1ccc(NC(=S)N2CCCCCC2)c(C)c1	-32%	·	8%	-0.6%
CCOC(=O)c1ccc2ncc(C(=O)OCC)c(NCc3ccco3)c2c1	-12%	-9	-9%	-1.7%
O=C(NC1CCS(=O)(=O)C1)/C(=C/c1ccco1)NC(=O)c1ccccc1 (stereo unspecified)	3%	9	-17%	1.7%
CCN1C/C(=C/c2ccc(OC)c(O)c2)C(=O)/C(=C/c2ccc(OC)c(O)c2)C1	?	-13	5%	1.9%
CCOC(=O)c1c(NC(=O)c2ccc(N3C(=O)[C@@H]4[C@H](C3=O)[C@H]3C=C[C@@H]4C3)cc2)sc2c1CCCC2	-2%	9	0%	-2.3%
CC(=O)CSc1nc(-c2cccs2)c(C#N)c(=O)[nH]1	0%	-3	1%	?
CN1CCN(c2nc(N3CCN(c4ccccc4)CC3)ncc2F)CC1	10%	-8	5%	5.7%
COc1ccc(C(=O)N/N=C2\SCC(=O)N2Cc2ccc3c(c2)OCO3)c(OC)c1	-9%	1	-2%	1.5%
Cc1ccc(N=c2c([N+](=O)[O-])nn(-c3ccccc3)n2O)c(C)c1	-20%	-7	2%	-5.1%
CCCOc1ccc(-c2nnc(-c3ccco3)o2)cc1	14%	2	0%	-2.0%
COC(=O)C1NC(=O)N2C(C(=O)OC)C(C)(C)S[C@H]12 (stereo partly specified)	·	·	19%	0.8%
O=C(CSc1nnc(C2CC2)n1Cc1ccccc1)c1ccc(S(=O)(=O)N2CCOCC2)cc1	-3%	-4	1%	0.1%
Cc1cc(C)n2nc3ccccc3c2n1	-10%	3	-3%	-0.8%
COc1ccc(C(=O)NCCc2cc3c(OC)ccc(OC)c3[nH]c2=O)cc1OC	0%	19	-3%	-1.3%
Cc1ccc(S(=O)(=O)CCC(=O)OCC(=O)N2CCN(S(=O)(=O)c3ccccc3)CC2)cc1	·	·	30%	-0.5%
COc1ccc(Cc2noc(CN(C)CC3(N4CCOCC4)CCCCC3)n2)cc1OC	14%	7	2%	-0.8%
C=C1N(CCCCCC(=O)O)C(=O)OC12CCCCC2	0%	-12	0%	3.5%
CCCc1cc2c(cc1N(C)S(=O)(=O)c1ccccc1)OCO2	·	·	8%	0.2%
O=C1c2ccccc2C(=O)N1CCCCCc1nc(-c2ccccc2)no1	-1%	-5	-23%	1.5%
CCC1CCCCN1C(=O)c1sc2nc(C)nc(N(CC)CC)c2c1C (stereo unspecified)	8%	-2[21.1 µM]	8%	-0.8%
CCCCC(=O)Nc1ccc(NC(=O)c2ccccc2[N+](=O)[O-])cc1OC	-7%	-7	-2%	-2.7%
O=C(NCCc1ccccn1)c1cc(-c2cccc3ccccc23)nc2ccccc12	12%	-4	4%	0.5%
Cc1ccc(S(=O)(=O)NC(CC(C)C)C(=O)N2CCCC2)cc1 (stereo unspecified)	9%	·	-9%	1.6%
Cc1ccc(O)c(-c2cc(-c3ccc(F)cc3)no2)c1	-44%	·	1%	-2.5%
COc1cccc(OCc2cc(C(=O)NCc3ccccn3)no2)c1	-62%	·	?	?
(next part)
SMILES	miR-21 FLuc	GLA inh pH 4.5	Rango release inh	Rango-impB inh
COc1c(C)cc(S(=O)(=O)NCc2ccccn2)c(C)c1C	-1%	·	1%	-0.1%
CCOC(=O)C(Cc1ccccc1)c1ccnc2ncnn12 (stereo unspecified)	-2%	7	1%	0.2%
N#Cc1c(/N=C/N2CCCC2)oc(-c2ccccc2)c1-c1ccccc1	-3%	-4	?	-0.8%
CC[C@H](C)[C@@H]1NC(=O)c2cc([N+](=O)[O-])cc(F)c2NCCCC[C@@H](C(N)=O)NC(=O)[C@H](CC(N)=O)NC1=O	-6%	3	0%	-4.2%
C[C@H]1CN(S(=O)C(C)(C)C)[C@H](CCO)/C1=C\CCO (stereo partly specified)	·	·	-18%	-0.3%
CCCC(=O)Nc1nc2ccc(NC(=O)c3c(F)c(F)c(OC)c(F)c3F)cc2s1	14%	-8	0%	-3.5%
CCCN(CC1CC1)S(=O)(=O)c1ccc(-n2cnnn2)c(OC)c1	-1%	4	21%	3.5%
Cn1c(=O)[nH]c(=O)c2c1nc(Br)n2CCCc1ccccc1	-8%	-2	·	·
CCNC(=O)COC(=O)CCNC(=O)c1cccc(C)c1	0%	-1	-6%	?
Cc1cc(Cn2nc(C(=O)NCC3CC3)cc2-c2ccccc2)on1	·	·	-3%	0.5%
CCOC(=O)/C(C#N)=C1/C=CN(c2ccc(C)cc2)C=N1	-42%	-8	15%	-0.4%
O=C(COc1ccc2c3c(c(=O)oc2c1)CCC3)Nc1ccc(CCO)cc1	0%	·	-3%	-2.7%
COC(=O)CCC(=O)Nc1cccc(Br)c1	-6%	-10	24%	1.7%
Cc1ccc(F)c(CNC(=O)C2CCC(=O)N(CCN3CCOCC3)C2)c1F (stereo unspecified)	-2%	·	18%	-4.6%
CCCC1=NN(C(=O)C(=O)Nc2ccc(Br)cc2)C(O)(C(F)(F)F)C1 (stereo unspecified)	22%	-8	14%	-0.3%
CC1(C)CC(=O)C(Sc2ccccc2[N+](=O)[O-])=C(O)C1	-7%	3	-7%	5.1%
O=C(CCSc1ccc(Cl)cc1)N1CCN(S(=O)(=O)c2ccccc2)CC1	·	·	1%	-0.4%
Cc1cc(C)n2nc(SCC(=O)N/N=C/c3ccccc3F)nc2n1	-12%	-2	-6%	-3.4%
Cc1c(C(=O)N2CCC3(CC2)CC(=O)c2ccccc2O3)cccc1[N+](=O)[O-]	·	·	1%	0.1%
Cc1cnc([N+](=O)[O-])n1CCOC(=O)NC(=O)c1ccc(F)cc1	0%	6	13%	-2.7%
Cc1cc(C)c2nc(N(CCCN(C)C)C(=O)c3ccc(S(=O)(=O)N4CCCCCC4)cc3)sc2c1	·	·	3%	6.5%
O=C(Cc1ccc(NC(=O)C2CCN(C(=O)C3CCC3)CC2)cc1)Nc1cccc(C(=O)N2CCCCC2)c1	·	·	?	0.5%
COc1ccc(CCN2CC(O)=C(c3nc4ccccc4c(=O)[nH]3)C2=N)cc1OC	-1%	2	4%	2.8%
CN1CCN(S(=O)(=O)c2ccc(N(C)Cc3cccc(F)c3)nc2)CC1	·	·	15%	-0.8%
COc1ccc(C(=O)N/N=C/c2ccc(OC(=O)c3cccc4ccccc34)c([N+](=O)[O-])c2)cc1	-20%	9	0%	?

Limited to Rango release inh, for two of the compounds above:
Structure	Rango release inh
CCNC(=O)COC(=O)CCNC(=O)c1cccc(C)c1	-6%
Cc1cc(Cn2nc(C(=O)NCC3CC3)cc2-c2ccccc2)on1	-3%

Four of the entries above in order of their number in Rango release inh, highest first:
SMILES	miR-21 FLuc	GLA inh pH 4.5	Rango release inh	Rango-impB inh
COc1c(C)cc(S(=O)(=O)NCc2ccccn2)c(C)c1C	-1%	·	1%	-0.1%
CC[C@H](C)[C@@H]1NC(=O)c2cc([N+](=O)[O-])cc(F)c2NCCCC[C@@H](C(N)=O)NC(=O)[C@H](CC(N)=O)NC1=O	-6%	3	0%	-4.2%
O=C(COc1ccc2c3c(c(=O)oc2c1)CCC3)Nc1ccc(CCO)cc1	0%	·	-3%	-2.7%
C[C@H]1CN(S(=O)C(C)(C)C)[C@H](CCO)/C1=C\CCO (stereo partly specified)	·	·	-18%	-0.3%

Next results
SMILES	miR-21 FLuc	GLA inh pH 4.5	Rango release inh	Rango-impB inh
COCCOC(=O)N/C=C\c1nc2ccccc2c(=O)[nH]1	15%	-2	8%	?
COc1ccc2c(c1)CCC1C2=NN(/C(C)=C\C(C)=O)C1c1ccc(F)cc1 (stereo unspecified)	-40%	6	?	?
O=C1CC(N2CCN(Cc3ccc4c(c3)OCO4)CC2)C(=O)N1Cc1ccc(N2CCCC2=O)cc1 (stereo unspecified)	3%	11	32%	-1.8%
C=CCn1c(SCc2ccc(Cl)c(Cl)c2)nnc1C(CO)NC(=O)c1ccc(OC)cc1 (stereo unspecified)	-3%	1	-7%	4.0%
CCS(=O)(=O)N1CCCC(C(=O)NCCCN2CCCC2=O)C1 (stereo unspecified)	0%	0	?	-1.2%
COc1ccc(CCNC(=O)C2CCN(S(=O)(=O)c3ccc(OC)c(OC)c3)CC2)cc1	-2%	2	11%	-2.2%
O=C(CN1CCN(C(=O)c2cccc(S(=O)(=O)N3CCCC3)c2)CC1)Nc1cccc(F)c1	·	·	12%	3.6%
Cc1nn(C)c(C)c1CNC(=O)Nc1ccc(Cl)cc1	-47%	-11[21.1 µM]	-5%	-3.9%
Cc1onc(-c2c(F)cccc2Cl)c1C(=O)NC1CCSC1=O (stereo unspecified)	-1%	-4	-12%	-0.4%
Cc1cc(C)n(-c2nc(SCC(=O)O)c3c4c(sc3n2)COC(C)(C)C4)n1	0%	-4	-11%	-1.0%
N#Cc1sc2nc3c(c(-c4cccnc4)c2c1N)CCC3	-7%	-1	-26%	-3.0%
Cc1ccc(S(=O)(=O)/N=C(/Nc2ccc([N+](=O)[O-])cc2[N+](=O)[O-])c2ccccc2)cc1	·	·	1%	-1.5%
COc1cc(C(=O)NC2CCN(Cc3nnnn3Cc3cccs3)CC2)cc(OC)c1OC	-5%	6	6%	-0.7%

Source: PubChem BioAssay

These rows are one share of the data; count on the stated rates, not on these rows.
